Bioassay records deposited in PubChem by Broad Institute.
rRNA inh HTS – inhibitors of bacterial rRNA selective over humanized ribosomes. E. coli WT GFP vs humanized-ribosome RFP mutants, fluorescence, 24 h; active compounds read low; DMSO median 0, no signal -100. GFP signal change (wild-type ribosome), % (test concentration not listed). actives 1.6% (n = 350,000). AID 720706;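 active = significant combined selectivity score with lowered wild-type GFP, culture density cut under 30%, mutant RFP and density less affected; inactive = any of these conditions unmet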; note: one replicate is shown; some compounds called inactive have numbers as strong as hits
FGF22 binding – shifts melting point of recombinant human FGF22; Q9HCT0; recombinant FGF22 thermal shift, SYPRO orange fluorescence; percent of sucrose octasulfate shift, DMSO zero; calls only at 9.99 µM; actives 1.5% (n = 340,000);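 active = melting point raised past a set limit in the mean and every replicate; three in four hits are not shown here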
Target sequence (Q9HCT0 whole entry, looked up): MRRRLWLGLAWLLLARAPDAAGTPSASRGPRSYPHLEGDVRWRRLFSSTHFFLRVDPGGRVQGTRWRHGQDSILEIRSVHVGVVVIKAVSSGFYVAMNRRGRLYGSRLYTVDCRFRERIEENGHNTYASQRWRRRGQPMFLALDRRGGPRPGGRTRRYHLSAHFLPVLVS
rRNA inh HTS OD600 – recorded beside rRNA inh HTS, whose call it bears; OD600 change, %; measured here: OD600 growth;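 optical density of the mix in the first replicate; 0 = DMSO median and -100 = no signal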
rRNA inh HTS RFP – recorded beside rRNA inh HTS, whose call it bears; RFP signal change, %; measured here: RFP humanized mutant strains;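 first replicate; 0 = DMSO median and -100 = no signal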
* = called active by the depositor; i = inactive.

Each structure is followed by: rRNA inh HTS	rRNA inh HTS OD600	rRNA inh HTS RFP	FGF22 binding
- C[C@@H]1CN([C@@H](C)CO)C(=O)CCCn2cc(nn2)CO[C@H]1CN(C)C(=O)Nc1ccc(N2CCCCC2)cc1
    2	4	6.7	i
- CCC(=O)N1CC[C@@H]2[C@H]1c1cc(-c3ccccc3F)ccc1N(C)[C@@H]2CO
    -4	-12	2.6	i
- CCNC(=O)Nc1ccc2c(c1)C(=O)N(C)[C@@H]1CC[C@@H](CC(=O)N[C@H](C)c3ccccc3)O[C@H]1CO2
    -5	-4	-1.5	i
- O=C(C[C@@H]1C[C@@H]2c3cc(NC(=O)Nc4ccc(F)cc4)ccc3O[C@@H]2[C@H](CO)O1)NCC1CC1
    -1	-3	0.8	i
- C[C@@H]1CCCCO[C@H](CN(C)Cc2ccncc2)[C@@H](C)CN([C@@H](C)CO)C(=O)c2cc(NC(=O)NC3CCCCC3)ccc2O1
    1	2	0.5	i
- C[C@@H](NC(=O)C[C@@H]1CC[C@H](NC(=O)Nc2ccc3c(c2)OCO3)[C@H](CO)O1)c1ccccc1
    -5	0	1.8	i
- O=C(N[C@H]1CC[C@H](CC(=O)N2CCC(Cc3ccccc3)CC2)O[C@H]1CO)c1cnccn1
    -4	-4	0.4	i
- C[C@@H]1CN([C@H](C)CO)C(=O)c2cc(NS(=O)(=O)c3cccs3)ccc2O[C@H]1CN(C)CC1CC1
    1	-8	-1.4	i
- C[C@H](CO)N1C[C@H](C)[C@H](CN(C)Cc2ccc(Oc3ccccc3)cc2)Oc2c(NS(C)(=O)=O)cccc2C1=O
    -1	-1	1.2	i
- O=C(C[C@H]1CC[C@@H](NS(=O)(=O)c2ccccc2)[C@@H](CO)O1)NCCN1CCCCC1
    2	-1	-0.6	i
- COc1ccc(NC(=O)Nc2ccc3c(c2)C(=O)N([C@@H](C)CO)C[C@H](C)[C@H](CN(C)Cc2ccncc2)OCCCC[C@@H](C)O3)cc1
    -2	-1	2.8	i
- COc1ccc(CNC(=O)C[C@@H]2C[C@@H]3c4cc(NC(=O)C5CCC5)ccc4O[C@@H]3[C@@H](CO)O2)cc1
    0	1	-3.2	i
- C[C@H](CO)N1C[C@H](C)[C@H](CN(C)C(=O)C2CCC2)Oc2ncc(C#Cc3ccccc3F)cc2C1=O
    -1	-11	0.6	i
- CCCN(C)C[C@@H]1Oc2cc(C#CC3(O)CCCC3)ccc2S(=O)(=O)N([C@H](C)CO)C[C@@H]1C
    3	3	-6.5	i
- COC(=O)[C@]12C[C@H](CC(=O)NCc3cccc(C(F)(F)F)c3)C(=O)N(Cc3ccc4c(c3)OCO4)C1=C[C@H](COCc1ccccc1)O[C@@H]2C
    17	14	3.4	i
- C[C@@H]1CN([C@@H](C)CO)C(=O)c2c(c3ccccc3n2C)-c2ccccc2CO[C@@H]1CN(C)Cc1ccncc1
    -13	-40	1.1	i
- C[C@H](CO)N1C[C@H](C)[C@H](CN(C)C(=O)Cc2ccccc2)OCCCC[C@H](C)Oc2ccc(NC(=O)c3ccncc3)cc2C1=O
    -5	-3	1.0	i
- C/C=C/c1ccc2c(c1)O[C@@H](CN(C)Cc1ccccc1F)[C@@H](C)CN([C@H](C)CO)S2(=O)=O
    -35	-56	14	i
- O=C(c1ccccc1)N1C[C@H]2[C@@H](c3ccccc31)[C@H](CO)N2C(=O)c1cccc(F)c1
    2	4	-2.8	i
- COCC(=O)N1C[C@H](C)[C@@H](OC)CN(C)C(=O)c2cc(NC(=O)Nc3ccccc3)ccc2OC[C@H]1C
    2	-5	-1.4	i
- O=C(Nc1ccccc1)N1CCCCN2[C@H](C1)[C@@H](c1ccc(-c3ccccc3)cc1)[C@@H]2CO
    -54	-65	-4.8	i
- COc1ccc(S(=O)(=O)Nc2ccc3c(c2)C(=O)N([C@H](C)CO)C[C@@H](C)[C@H](CN(C)C(=O)c2ccncc2)OCCCC[C@@H](C)O3)cc1
    2	0	-1.3	i
- C[C@H]1CN([C@@H](C)CO)C(=O)c2cccc(NS(=O)(=O)c3ccc(F)cc3)c2O[C@H]1CN(C)S(=O)(=O)c1cccs1
    -6	-7	0.2	i
- C[C@@H]1CN([C@H](C)CO)S(=O)(=O)c2ccc(-c3ccncc3)cc2O[C@@H]1CN(C)C(=O)C1CC1
    2	13	0.7	i
- COc1ccc2c3c(n(C)c2c1)[C@@H](CO)N(Cc1cc(F)ccc1F)CC31CN(C(C)=O)C1
    -4	-3	1.4	i
- C[C@H]1CN([C@@H](C)CO)C(=O)Cc2cc(NS(=O)(=O)c3ccccc3)ccc2O[C@H]1CN(C)S(=O)(=O)c1ccc(Cl)cc1
    2	-8	9.3	i
- COCC(=O)Nc1ccc2c(c1)C(=O)N(C)C[C@H](OC)[C@@H](C)CN(Cc1cccnc1)[C@H](C)CO2
    -1	1	-0.8	i
- C[C@@H]1CN([C@@H](C)CO)C(=O)c2cccc(N(C)C)c2O[C@@H]1CN(C)S(=O)(=O)c1cccs1
    -3	2	-3.4	i
- Cc1cc(C(=O)Nc2cccc3c2O[C@H](CN(C)C(=O)NC2CCCCC2)[C@H](C)CN([C@H](C)CO)C3=O)n(C)n1
    -6	-5	-1.4	i
- C[C@@H]1CN([C@H](C)CO)C(=O)c2cc(C#Cc3ccc(F)cc3)cnc2O[C@@H]1CN(C)S(C)(=O)=O
    -2	5	-2.5	i
- O=C(NC1CCCC1)N1CCCCN2[C@H](CO)[C@@H](c3ccc(-c4cncnc4)cc3)[C@@H]2C1
    0	8	1.0	i
- COc1ccc(NC(=O)Nc2ccc3c(c2)C(=O)N([C@@H](C)CO)C[C@@H](C)[C@H](CN(C)C(=O)C2CCCCC2)OCCCC[C@@H](C)O3)cc1
    -1	1	-1.1	i
- C[C@@H]1CCCCO[C@H](CN(C)C(=O)Nc2ccccc2)[C@H](C)CN([C@H](C)CO)C(=O)c2cc(NS(=O)(=O)c3cn(C)cn3)ccc2O1
    4	4	-2.2	i
- CC(C)NC(=O)N[C@H]1CC[C@H](CC(=O)NCCCN(C)C)O[C@H]1CO
    1	1	-1.1	i
- COC(=O)C[C@H]1CC[C@@H]2[C@H](COC[C@@H](O)CN2S(=O)(=O)c2ccccc2C)O1
    -2	4	2.4	i
- CC(C)c1cccc(NC(=O)C[C@H]2CC[C@H]3[C@@H](COc4ccc(NC(=O)NCc5ccccc5)cc4C(=O)N3C)O2)c1
    -3	1	-0.9	i
- CO[C@@H]1CN(C)C(=O)c2cc(NC(=O)c3ccc(-c4ccccc4)cc3)ccc2OC[C@H](C)NC[C@H]1C
    -8	-5	36	i
- Cc1ccccc1S(=O)(=O)NCC[C@H]1CC[C@H](NC(=O)C2CCCCC2)[C@@H](CO)O1
    -3	6	-1.0	i
- COCC(=O)N(C)C[C@@H]1Oc2ncc(C#Cc3ccccc3OC)cc2C(=O)N([C@@H](C)CO)C[C@H]1C
    -1	-2	-5.7	i
- C[C@H]1COc2cccc(N3CCCC3)c2S(=O)(=O)N1
    9	14	6.1	i
- OC[C@H]1[C@H](c2ccc(-c3ccc(F)cc3)cc2)[C@@H]2CN(Cc3ccncc3)CCCCN12
    -19*	-0.9*	5.6*	i
- C[C@@H]1CN([C@H](C)CO)C(=O)c2cccc(NS(=O)(=O)c3ccccc3)c2O[C@@H]1CN(C)S(=O)(=O)c1cccs1
    -1	-6	1.0	i
- CC(C)NC(=O)N(C)C[C@H]1Oc2ccc(NS(=O)(=O)c3ccccc3)cc2C(=O)N([C@@H](C)CO)C[C@H]1C
    -2	1	-3.9	i
- CC(C)NC(=O)N1CCCCN2[C@H](C1)[C@@H](c1ccc(C#Cc3ccccc3)cc1)[C@@H]2CO
    -58	-77	-11	i
- CN(C)C(=O)C[C@H]1C[C@@H]2c3cc(NC(=O)NC4CCCC4)ccc3O[C@@H]2[C@H](CO)O1
    2	5	-2.6	i
- COCCNC(=O)C[C@H]1CC[C@H]2[C@@H](COC[C@H](O)CN2C(=O)Nc2ccccc2OC)O1
    -10	-11	-1.6	i
- CCCNC(=O)N1C[C@@H](O)COC[C@@H]2O[C@@H](CC(=O)N[C@@H]3CCN(Cc4ccccc4)C3)CC[C@H]21
    4	-5	-1.6	i
- C/C=C/c1ccc([C@H]2[C@H](CO)N(C(C)=O)C23CN(C(=O)c2ccncc2)C3)cc1
    0	-2	-1.2	i
- C[C@H](CO)N1C[C@H](C)[C@@H](CN(C)Cc2ccc(Cl)c(Cl)c2)Oc2ccc(NS(=O)(=O)c3ccc(Cl)cc3)cc2C1=O
    1	3	7.8	i
- CCC(=O)N1C[C@H](C)[C@H](OC)CN(C)C(=O)c2ccc(NC(=O)Nc3ccccc3)cc2OC[C@H]1C
    -4	-6	1.6	i
- COc1ccc(S(=O)(=O)Nc2cccc3c2O[C@H](CN(C)Cc2ccc(-c4ccccc4)cc2)[C@@H](C)CN([C@@H](C)CO)C3=O)cc1
    -2	4	0.1	i
- CO[C@@H]1CN(C)C(=O)c2ccc(NS(C)(=O)=O)cc2OC[C@@H](C)N(C)C[C@@H]1C
    1	8	-0.5	i
- CCCNC(=O)Nc1ccc2c(c1)OC[C@H](C)N(Cc1cccnc1)C[C@@H](C)[C@H](OC)CN(C)C2=O
    -2	-1	-1.5	i
- C[C@H]1CN([C@@H](C)CO)C(=O)c2cc(C#CC3CCCCC3)cnc2O[C@H]1CN(C)S(=O)(=O)c1cccc(F)c1
    2	-6	1.1	i
- CCCCCCCCN1C(=O)[C@@H](CC(=O)NCCCN2CCCC2=O)C[C@@]2(C(=O)OC)C1=C[C@H](C(C)(C)C)O[C@@H]2C
    -2	-20	4.9	i
- CCCC(=O)Nc1ccc2c(c1)OC[C@H](C)N(C(=O)c1ccccn1)C[C@@H](C)[C@@H](OC)CN(C)C2=O
    2	1	-0.9	i
- C[C@@H]1CN([C@@H](C)CO)C(=O)c2cc(NS(=O)(=O)c3cn(C)cn3)ccc2O[C@@H](C)CCCCO[C@H]1CN(C)C(=O)CCCN(C)C
    8	10	0.3	i
- C[C@H]1CN([C@@H](C)CO)C(=O)c2cc(-c3ccccc3)cnc2O[C@H]1CN(C)C(=O)Nc1ccccc1
    0	0	-2.6	i
- CN(C)C(=O)c1ccc(-c2ccc3c(c2)[C@@H]2[C@@H](CCN2S(=O)(=O)c2cn(C)cn2)[C@H](CO)N3)cc1
    2	9	-3.3	i
- COc1cccc(-c2ccc3n(c2=O)C[C@@H]2[C@@H](CO)[C@H](C(=O)N(C)C)N(C(=O)C4CCC4)[C@H]32)c1
    1	7	-2.4	i

Taken from above:
CC(C)NC(=O)N(C)C[C@H]1Oc2ccc(NS(=O)(=O)c3ccccc3)cc2C(=O)N([C@@H](C)CO)C[C@H]1C @ rRNA inh HTS: -2
C/C=C/c1ccc([C@H]2[C@H](CO)N(C(C)=O)C23CN(C(=O)c2ccncc2)C3)cc1 @ rRNA inh HTS OD600: -2
CC(C)NC(=O)N[C@H]1CC[C@H](CC(=O)NCCCN(C)C)O[C@H]1CO @ rRNA inh HTS RFP: -1.1
O=C(NC1CCCC1)N1CCCCN2[C@H](CO)[C@@H](c3ccc(-c4cncnc4)cc3)[C@@H]2C1 @ rRNA inh HTS: 0
CCCNC(=O)Nc1ccc2c(c1)OC[C@H](C)N(Cc1cccnc1)C[C@@H](C)[C@H](OC)CN(C)C2=O @ rRNA inh HTS: -2

Other compounds follow.
Each structure is followed by: rRNA inh HTS	rRNA inh HTS OD600	rRNA inh HTS RFP	FGF22 binding
- O=C(C[C@@H]1CC[C@H](NC(=O)c2ccncc2)[C@@H](CO)O1)Nc1ccccc1
    2	2	-3.3	i
- O=S(=O)(NCC[C@H]1CC[C@@H](NS(=O)(=O)c2cccc(Cl)c2)[C@H](CO)O1)c1cccc(F)c1
    -5	-5	4.3	i
- O=C(O)C[C@@H]1C[C@@H]2c3cc(NC(=O)NC4CCCC4)ccc3O[C@@H]2[C@@H](CO)O1
    8	1	-0.4	i
- CO[C@@H]1CC[C@H]2CCN(C)C(=O)CCCN(C)C(=O)c3cc(C#N)ccc3OC[C@H]1O2
    3	7	-1.6	i
- O=C(C[C@@H]1CC[C@@H](NC(=O)Nc2ccccc2F)[C@@H](CO)O1)NCc1ccccc1
    3	0	0.9	i
- Cc1noc(C)c1NC(=O)Nc1ccc2c(c1)CC(=O)N([C@@H](C)CO)C[C@@H](C)[C@@H](CN(C)C(=O)Nc1ccc3c(c1)OCO3)O2
    3	2	1.2	i
- C[C@@H]1CN([C@H](C)CO)C(=O)c2cc(NC(=O)CCN3CCOCC3)ccc2O[C@@H]1CN(C)C(=O)NC1CCCCC1
    4	4	-0.7	i
- COc1ccc2c3c(n(C)c2c1)[C@@H](CO)N(C(C)=O)CC31CN(C(=O)C2CCOCC2)C1
    5	11	-2.0	i
- C[C@@H](O)C#Cc1ccc([C@H]2[C@H](CO)N3CCCCN(CC4CC4)C[C@@H]23)cc1
    5	8	6.7	i
- C[C@@H]1CN([C@@H](C)CO)C(=O)c2cc(NC(=O)Nc3ccc(F)cc3)ccc2O[C@H]1CN(C)C(=O)Nc1ccccc1
    1	8	-2.1	i

3 entries from above, reformatted.
O=S(=O)(NCC[C@H]1CC[C@@H](NS(=O)(=O)c2cccc(Cl)c2)[C@H](CO)O1)c1cccc(F)c1
- rRNA inh HTS: -5
- rRNA inh HTS OD600: -5
- rRNA inh HTS RFP: 4.3
- FGF22 binding: i
O=C(O)C[C@@H]1C[C@@H]2c3cc(NC(=O)NC4CCCC4)ccc3O[C@@H]2[C@@H](CO)O1
- rRNA inh HTS: 8
- rRNA inh HTS OD600: 1
- rRNA inh HTS RFP: -0.4
- FGF22 binding: i
CO[C@@H]1CC[C@H]2CCN(C)C(=O)CCCN(C)C(=O)c3cc(C#N)ccc3OC[C@H]1O2
- rRNA inh HTS: 3
- rRNA inh HTS OD600: 7
- rRNA inh HTS RFP: -1.6
- FGF22 binding: i

Not all compounds are listed. The share of hits here may be higher or lower than overall.
